Autofluor counter: counter-screen for toxin protease inhibitors: compound fluorescence; AID 624483; fluorescence intensity (concentration not given with the values); 3.1% of 360,000 active; compound autofluorescence counterscreen, microsphere flow cytometry; hits give high values;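 active = at least 3 SD above the mean of all compounds, about 16000 in these data; inconclusive = too few beads counted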;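 also: 100 nL of 1 mM stock went into each well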
Mtb hypoxia inh: PubChem AID 1159583 | fluorescence inhibition, % (concentration not given with the values) | M. tuberculosis hypoxia-regulated fluorescent reporter, fluorescence | 0.1% of 300,000 active;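 active = 35 to 45% if threefold the growth effect, above 45% if 1.5-fold the growth effect; inactive = the rest, general growth blockers included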;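 also: wells of about 50 µL received 100 nL stock; 0% = vehicle wells and 100% = reference inhibitor wells; whole bacteria with a GFP reporter of the hypoxia response; strong numbers were not always called active; many hits fall short of the cut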
PrP 5UTR inh: inhibition of PrP 5' UTR reporter expression. 0.35% of 340,000 active. cell-based PrP 5' UTR mRNA reporter, plate reader. inhibition, % (no concentration beside the values);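 active = every replicate at 50% or more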;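 also: 0 = median of the neutral control wells; tested in H4 reporter cells; numbers are from one replicate; inactives centre near -14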
BJeLR viability: MLPCN primary cell-based screen for lethality selective to Ras in HRASV12 cells. inhibition, % (no concentration beside the values). 0.17% of 300,000 active. BJeLR (HRASV12) viability, CellTiter-Glo ATP luminescence, 48 h; reference of the scale not given here;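 active = replicate mean above 50%; inconclusive = above 50% but judged a plate artefact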;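 also: 50 nL library stock added to about 25 µL; numbers are from one replicate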
RN4220 kill: growth inhibition of S. aureus RN4220, primary screen, OD600; 16 h; inhibition, % (concentration not given with the values); 0.33% of 330,000 active; AID 1259311, 2017;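 active = z-score of -3 or lower and OD600 up to 0.18 on both plates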;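 also: plate controls were untreated cells for no effect and reference antibiotic for full effect; stock transfer was 100 nL into about 80 µL; one replicate is shown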
Sa ugtP lethal: growth inhibition of ugtP-null S. aureus, primary screen, RN4220 ugtP deletion, OD600 | 16 h; some inactives read as strong as hits | growth inhibition, % (no concentration beside the values) | 0.54% of 330,000 active | AID 1259309, 2017;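 active = z-score under -3 and OD600 up to 0.15 on both plates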;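 also: plate controls were untreated wells for no effect and antibiotic for full effect; wells of about 80 µL received 100 nL stock; the first replicate is given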
Mtb hypoxia inh growth: also measured in Mtb hypoxia inh; calls as there; growth inhibition, %; measured here: M. tuberculosis growth (absorbance);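 0% = vehicle and 100% = reference antibiotic; read after six days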
* hit, by the source's call; ? = inconclusive; nt = no result given. The order is random. About 4% of those tested had a hit in this group.

SMILES	Autofluor counter	Mtb hypoxia inh	Mtb hypoxia inh growth	PrP 5UTR inh	BJeLR viability	RN4220 kill	Sa ugtP lethal
CCC(C)C(NC(=O)c1ccccc1)C(=O)Nc1ccc(S(=O)(=O)Nc2cc(C)nc(C)n2)cc1 (configuration not stated)	3145	3	-3	-25	nt	3.9	10
Cc1nnnn1/C(=C\c1ccccc1)C(=O)OCC(=O)NC1CCCCC1	?	13	1	-14	1	3.8	7
CCOC(=O)C1CSC(CC(=O)Nc2ccc(OCC)cc2)C(=O)N1 (configuration not stated)	3304	9	6	-19	-8	2.9	2
O=C1NC(=S)N/C1=C\c1ccccc1OCc1ccc(C(=O)O)cc1	6281	-8	2	-16	2	0.3	8
CSc1nc(N)nc2c1ncn2CC(=O)Nc1ccc(C)c(C)c1	3457	-5	5	-19	nt	0.4	-2
O=C1C=C(NCc2ccc3c(c2)OCO3)CC(c2ccccc2)C1 (configuration not stated)	nt	5	0	nt	7	-0.8	2
CC(=O)NN=C(C)CC(=O)NC(C)(C)C	nt	6	1	nt	nt	1.5	8
CN1CCN(C(=O)CCNC(=O)Cn2ccc3ccccc3c2=O)CC1	6370	-3	-3	1	2	0.2	4
CCN(CC(=O)NCc1ccc(Cl)cc1)CC(=O)Nc1ccc(C(N)=O)cc1	4870	3	6	-10	10	-0.8	3
COc1ccc(CCc2nnc(CCC(=O)NCc3ccc4ncccc4c3)o2)cc1	4752	12	5	-24	-4	-1.2	12
O=C(c1cc(-c2ccco2)on1)N1CCN(c2ccccc2)CC1	5615	-1	8	-5	-7	-15	1
COc1ccccc1CNC(=O)c1cccc(-c2ccc(C)c3ccccc23)n1	nt	0	-3	nt	-12	6.6	4

Next section, starting with the last 4 of the part before.
SMILES	Autofluor counter	Mtb hypoxia inh	Mtb hypoxia inh growth	PrP 5UTR inh	BJeLR viability	RN4220 kill	Sa ugtP lethal
CCN(CC(=O)NCc1ccc(Cl)cc1)CC(=O)Nc1ccc(C(N)=O)cc1	4870	3	6	-10	10	-0.8	3
COc1ccc(CCc2nnc(CCC(=O)NCc3ccc4ncccc4c3)o2)cc1	4752	12	5	-24	-4	-1.2	12
O=C(c1cc(-c2ccco2)on1)N1CCN(c2ccccc2)CC1	5615	-1	8	-5	-7	-15	1
COc1ccccc1CNC(=O)c1cccc(-c2ccc(C)c3ccccc23)n1	nt	0	-3	nt	-12	6.6	4
Cc1ccc2oc(-c3ccc(C)c(NC(=S)NC(=O)c4cccs4)c3)nc2c1	2199	-11	-8	-18	-1	19	-15
CCCCn1c(C)c(C(=O)O)c2cc(OC)ccc21	7866	6	4	-42	-10	8.0	-1
O=C(NC(=S)Nc1cc([N+](=O)[O-])ccc1Cl)c1ccccc1	2101	nt	nt	-22	2	0.0	5
COc1ccc(CNC(=O)C2CCN(C(=O)c3ccco3)CC2)cc1	6193	-1	12	-8	-13	-1.8	7
Cc1oc(C(C)(C)C)c(CN2CCCC2)c1C(=O)O	3068	nt	nt	3	-3	1.4	-3
CCOC(=O)C1=CN(Cc2cccc(F)c2)S(=O)(=O)N(C)C1c1ccccc1 (configuration not stated)	3420	4	5	-54	nt	1.9	7
COC(=O)CSc1nc2c(cnn2-c2ccc(Cl)cc2)c(=O)[nH]1	3763	-3	-2	1	-1	5.6	-3
O=C1CCCCCN1Cc1ccccc1	2247	nt	nt	-17	2	2.9	3
CCC(CO)Oc1cc(NCc2ccc(C)cc2)c2ncn(C(C)C)c2c1 (configuration not stated)	3357	3	1	10	nt	-0.4	-2
Cc1ccc(N2C(=O)NC(=O)/C(=C\c3cn(CC(=O)O)c4ccccc34)C2=O)cc1	3476	-4	10	-8	-7	2.6	7
NC(=O)N/N=C/c1ccc(-c2cccc(C(F)(F)F)c2)o1	4064	nt	nt	-14	0	nt	nt
Cc1sc(NC(=O)c2cccs2)c(C(N)=O)c1C	10567	12	10	-52	1	4.1	-11
CCCCN1CCc2c(c3ccccc3n2Cc2ccccc2)C1	3624	-10	11	6	8	-0.9	-6
CCOc1ccccc1NC(=O)CSc1nnnn1-c1ccc(C(=O)OC)cc1	9750	0	5	-24	-1	3.1	1
CCN(CC)C(=O)c1ccc(-c2nnc(OC)c3ccccc23)cc1	6084	0	3	-34	0	-1.0	-4
CCN(CC)CCN(C(=O)c1ccc(C(=O)c2ccccc2)cc1)c1nc2c(OC)cccc2s1	5423	3	2	-30	-13	0.3	1
CN(C(=O)COC(=O)c1ccc(Cl)nc1)c1c(N)n(Cc2ccccc2)c(=O)[nH]c1=O	5960	2	-4	-20	nt	-0.5	3
CCC(=NCCc1ccc(OC)c(OC)c1)C1=C(O)CC(C)(C)CC1=O	4161	10	3	5	-3	2.6	1
COc1c(C)cc(C(=O)C2CCCN(C(=O)Cn3nc(C)nc3C)C2)cc1C (configuration not stated)	3948	4	1	-9	0	-0.6	0
COc1ccc(-c2csc(NC(=O)c3cccc(N4C(=O)CCC4=O)c3)n2)cc1C	6313	4	9	2	3	8.8	-3
CCn1nnnc1SCC(=O)c1ccc(C)cc1	3458	13	11	-41	-12	5.0	8
NCCc1nc(-c2ccccc2)cs1	3346	-11	-11	-24	4	2.9	4
O=C(NN=Cc1ccc([N+](=O)[O-])s1)c1cncc(Br)c1	nt	-11	6	nt	nt	25	99*
Cc1cc(=O)[nH]c(N/N=C/c2ccc(Br)s2)n1	3100	nt	nt	-23	-4	nt	nt
COc1ccc(C(=O)Cn2cnc3ccccc3c2=O)cc1OC	3755	-7	1	-1	-5	2.2	2
CCN(C1CCCCC1)S(=O)(=O)CCNC(=O)c1ccccc1	?	nt	nt	-14	10	nt	nt
CCCCCCNS(=O)(=O)c1nc2nc(C)cc(C)n2n1	4369	6	10	-17	3	-9.3	-2
COc1ccc(Br)cc1C(=O)Nc1ccc(N2CCN(S(C)(=O)=O)CC2)cc1	4638	nt	nt	-17	3	-2.4	7
CCn1c(SCC(=O)Nc2ccc(OC)cc2)nnc1-c1ccco1	nt	nt	nt	1	4	0.8	3
COc1ccc(C)cc1NC(=O)CSCc1cc(=O)n2c(C)csc2n1	nt	-4	-4	-12	nt	-0.2	1
COC(=O)c1ccc(C(NC(=O)OCc2ccccc2)C(F)=CC(C)C(=O)NCc2ccc(-c3ccccc3)cc2)cc1 (configuration not stated)	nt	12	9	nt	nt	-8.1	-8
O=C(O)c1ccc(N/N=C/c2cccc3cccnc23)cc1	4977	nt	nt	-95	-8	nt	nt
Cc1ccnc(NC(=O)CCC(=O)N(CC(=O)NC(C)(C)C)c2ccc(F)c(Cl)c2)c1	3938	11	5	-20	-13	4.7	6
Clc1ccc2nc(-c3ccccn3)c(Nc3ccc4c(c3)OCO4)n2c1	1962	4	5	-36	-4	10	-8
CCn1c(C)nc2cc(C(=O)NNC(=S)NC(=O)c3ccc(OC)cc3)ccc21	3359	0	8	-24	6	14	-1
Cc1cccc(N2C(=O)CC(Cn3nc(C)cc3C)C2=O)c1 (configuration not stated)	4214	-10	6	-22	-4	0.4	-4
CC(=O)Nc1ccc(NC(=O)C(C)OC(=O)/C=C/c2cnc3ccccc3n2)cc1 (configuration not stated)	4207	6	-5	-13	7	2.6	4
C/C(NC(=O)c1cccs1)=C1\C(=O)C[C@@H]2[C@H]1C2(C)C	2757	5	8	-19	-6	-1.2	4
COCCCNC(=O)C(=O)C1C(=O)Nc2ccccc21 (configuration not stated)	1922	8	8	-5	-3	3.1	3
COc1ccc(OCC(=O)NC(CC(=O)O)c2ccc(OC)c(OC)c2)cc1 (configuration not stated)	4710	-11	8	-6	-2	-2.0	-3
Cc1nc2c3ccccc3n(CC#N)c(=O)n2n1	5832	nt	nt	-24	5	3.1	5
Cc1ccc(NC(=O)CNc2ccc(Cl)cc2F)cc1	2481	7	7	-26	4	-2.2	-10
CCc1ccc(N(C(=O)C(F)(F)F)C(C(=O)NC2CCCCC2)c2ccncc2)cc1 (configuration not stated)	10234	4	-2	-40	-11	1.2	1
Cc1ccc(NC(=S)NCCSc2ccc(Cl)cc2)c(C)c1	2478	6	11	-9	-34	-7.0	-19
N#CC1=C(N)OC2=C(CN(Cc3ccccc3)C/C2=C\c2cccnc2)C1c1cccnc1 (configuration not stated)	3071	nt	nt	-26	7	nt	nt
CS(=O)(=O)c1ccc(C(=O)OCC(=O)NC(=O)C2COc3ccccc3O2)cc1[N+](=O)[O-] (configuration not stated)	3500	5	16	-3	nt	4.2	4
CCOC(=O)c1cnc2ccc(Cl)cc2c1N1CCN(C)CC1	7609	14	9	-7	3	5.2	6
CCCCn1c(N)c(N(CCOC)C(=O)CSc2nnc(-c3ccco3)n2CC)c(=O)[nH]c1=O	3432	-4	-5	-18	nt	5.0	7
CCC1(CC)NC(=O)N(CC(=O)OCC(=O)c2cc(C)c(C)cc2C)C1=O	5575	-1	0	-24	nt	7.7	8
COc1cc2[nH]c(=S)nc(NCCc3ccc(C)cc3)c2cc1OC	2631	-6	-8	-7	nt	2.0	-20
COc1ccc(C2(C)NC(=O)N(CC(=O)N3CCc4ccccc43)C2=O)cc1OC (configuration not stated)	3801	-3	4	-21	nt	2.3	2
CN(C)C(=S)SCC(=O)Nc1ccc(Cl)cc1Cl	2507	17	5	-37	-5	7.3	12
CC1CCN(C(=O)Cn2c(=O)n(CCCC(=O)NCc3ccco3)c(=O)c3sccc32)CC1	3601	7	6	-21	-1	1.6	11
Cc1ccccc1CNC(=O)C(=O)NCCC1CCCCN1S(=O)(=O)c1ccccc1 (configuration not stated)	7276	nt	nt	-2	-3	nt	nt
Cc1ccc(-n2nnnc2SCC(=O)N2CC(=O)Nc3ccccc32)cc1	2958	3	10	-21	6	1.3	-7
O=C(c1ccccc1)C1N=NCC1c1ccc(Cl)cc1 (configuration not stated)	3625	19	8	-15	nt	2.8	27
Cc1cc(C)nc(N/N=C/c2ccccc2OCc2cccc(Br)c2)n1	2583	nt	nt	-20	0	nt	nt
O=C(CC(C(=O)O)c1c[nH]c2ccccc12)c1ccccc1 (configuration not stated)	4619	7	3	-31	4	4.9	-3
CC1(NC(=O)c2ccccc2)CCN(CCc2cccs2)C1=O (configuration not stated)	4039	13	16	-22	nt	5.8	-2
O=C(Nc1nc(-c2ccc([N+](=O)[O-])cc2)cs1)c1c(F)cccc1F	4113	4	1	-6	-2	-1.8	24
Next compounds.
SMILES	Autofluor counter	Mtb hypoxia inh	Mtb hypoxia inh growth	PrP 5UTR inh	BJeLR viability	RN4220 kill	Sa ugtP lethal
CCN(CC)C(=O)c1ccc(NC(=O)c2cccc(C(F)(F)F)c2)cc1	4177	6	1	78*	14	-8.2	-2
CN(CC(=O)Nc1ccc(F)cc1)C(=O)c1cccc(S(=O)(=O)N2CCN(c3ccccc3)CC2)c1	6143	2	5	0	6	0.9	5
Cn1c(COc2ccc(Cl)cc2)nnc1SCc1ncc(-c2ccccc2)o1	6415	3	-1	4	-10	13	-2
CC(=O)Nc1ccc(SCC(=O)c2ccc(Br)s2)cc1	4367	1	10	-7	5	0.8	-5
CCOc1ccc(/C=N/OCC(=O)NC(c2ccccc2)c2ccccc2)cc1	2550	nt	nt	-19	-4	nt	nt
Cc1ccc(CNC(=O)CN2CCN(c3ccc(F)cc3)CC2)cc1	3857	2	4	-15	-2	4.3	15
O=C(NC(=S)Nc1cccnc1Cl)c1ccc(Cl)cc1	5211	-1	2	-79	2	5.0	88*
Cc1ccc(C(=O)O/N=C(\N)c2ccccn2)c(Cl)c1	3503	6	-2	81*	10	3.0	-1
CCCCOc1ccc(C(C)(O)CCN2CCOCC2)cc1 (configuration not stated)	3867	nt	nt	-9	0	6.1	5
Cc1cc(-c2ccccc2)nc(N/N=C/c2ccc(N(C)C)cc2)n1	5889	nt	nt	-2	-6	nt	nt
CCC(C)[C@H]1CN=C(N)N1CCc1cc(C(F)(F)F)cc(C(F)(F)F)c1 (some centres not stated)	3875	nt	nt	-12	3	nt	nt
CCOC(=O)c1cc[nH]c1CC(=O)NC	2885	nt	nt	1	0	nt	nt
CCOC(=O)Cc1[nH]nc2c1C(Cc1ccccc1)C(C#N)=C(N)O2 (configuration not stated)	?	12	-8	-2	-3	3.2	1
CCOc1ccc(CN(C(=O)c2ccccn2)c2ccc(OC)c(Cl)c2)cc1	6998	8	1	-45	-6	1.7	1

Screening results deposited in PubChem by several laboratories.
